Screens from PubChem BioAssay.
TRPV1 PAM: HTS Assay for Compounds that Act as Potentiators of the Vanilloid Receptor 1; Transient receptor potential cation channel subfamily V member 1 (Homo sapiens), Q8NER1; potentiation, % at 8.33 µM; TRPV1-expressing cells, Fluo-8 calcium influx, capsaicin EC20 potentiation; host cell line not named in the record; control for the full effect not named in the record; actives 0.02% (n = 320,000); active means potentiation above 80%; inconclusive means 30% to 80%; inactive means below 30%; further: 0% is about no effect
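TRPV1-expressing cells were cultured overnight at 35.5C and loaded with Fluo-8 calcium dye for 40 to 90 min at room temperature. After a 10 s baseline, compound was added and calcium influx was read kinetically for 3 min (ex 480/em 520 nm).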
ClpP mod: qHTS Assay for Activators of ClpP; Potency, µM (titrated, usually from 57.5 µM), inactives show top-dose activity change, negative = active; actives 1.9% (n = 340,000); ATP-dependent Clp protease proteolytic subunit (Bacillus subtilis (strain 168)), P80244; purified B. subtilis ClpP, FRET peptide cleavage, 20 min; active = well fitted falling curve with a large enough effect; inconclusive = small, poorly fitted or top-dose-only effect; inactive = no such curve, though single readings can be large or run the other way; further: potency means the concentration at half of the fitted maximal effect; the source files actives as falling curves though it sought activators and does not explain the sign; nearly all actives have a fitted effect of over 65% in size; many hits overshoot -100%
Target sequence (P80244 whole entry, looked up): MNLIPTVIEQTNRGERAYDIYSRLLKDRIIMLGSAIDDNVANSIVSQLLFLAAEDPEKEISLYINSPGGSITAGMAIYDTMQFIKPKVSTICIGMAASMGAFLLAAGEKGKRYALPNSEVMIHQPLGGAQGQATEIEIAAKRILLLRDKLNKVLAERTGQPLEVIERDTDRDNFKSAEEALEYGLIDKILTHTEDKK
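ClpP 10 microg/mL final, pH 8 Tris/KCl buffer with BSA, glycerol, Tween-20; compound pinned in; FRET-FV substrate; RT 20 min; Ex320/Em430; ΔFRET vs ADEP 5.8 microM, DMSO, no enzyme.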
PINK1 expr mod: A Quantitative High throughput Screen to Identify Chemical Modulators of PINK1 Expression; actives 0.2% (n = 410,000); PINK1 immunofluorescence, high-content cytometry, 24 h; Potency, µM (titrated, usually from 76.6 µM), for the others: at the highest dose activation (PINK1 increase), actives largely listed as activators; active = well fitted activation curve with a large enough effect; inconclusive = small, poorly fitted or top-dose-only effect; inactive = flat fitted curve, though single readings scatter; cell line not stated here;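 further: potency means the concentration at half of the fitted maximal effect; % of control where 0% means no effect; nearly all actives have a fitted effect of over 65% in size; a mitochondrial uncoupler was the plate control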
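Readout is PINK1 immunofluorescence, quantified alongside mitochondrial, cell and nuclear markers by laser-scanning microplate cytometry. Cells from a stable line were exposed to compound titrations (5 concentrations) for 24 hours, with CCCP controls.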
Sfp inh: qHTS Assay for Inhibitors of Bacillus subtilis Sfp phosphopantetheinyl transferase (PPTase); 4'-phosphopantetheinyl transferase ffp (Bacillus subtilis), Q9F4F7; Biochemical Sfp PPTase activity, qHTS; Potency, µM, for the others: max response, negative = inhibition, most hits filed as inhibitors; actives 3.5% (n = 310,000); AID 1490, 2009; active means well fitted inhibition curve with a large enough effect; inconclusive means small, poorly fitted or top-dose-only effect, or another doubt; inactive means no such curve, though single readings can be large or run the other way;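 further: the enzyme is Sfp with the accession as filed and its product quenches rhodamine fluorescence; potency means the concentration at half of the fitted maximal effect; 0% = enzyme reaction without inhibitor and -100% = no enzyme wells; top concentration of the series not given in the record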
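Fluorescence-quenching assay with 15 nM Sfp, 5 uM rhodamine-CoA and 12.5 uM BHQ-2-labelled ybbR peptide in pH 7.6 Hepes/MgCl2 buffer. Enzyme was pre-incubated with compound for 15 min at room temperature. Rate was taken from the 30-min fluorescence change (525/598 nm).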
Menin-MLL FL inh: qHTS Assay for Inhibitors Targeting the Menin-MLL Interaction in MLL Related Leukemias: Competition With Fluorescein Labeled MLL-derived Peptide | Fluorescence polarization, fluorescein-MLL peptide displacement from menin | FP activity change, % at 61.4 µM | 290,000 tested, under 10 active; inconclusive = falling polarisation curve, or a change in total fluorescence; inactive = total fluorescence flat and polarisation flat or rising; no compound was filed as active; the % refers to the polarisation; negative = inhibition;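 further: % of control where 0% means no effect; inhibitors lower the polarisation; unlabelled MLL peptide was the positive control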
TRPML1 inh: qHTS for Inhibitors of the Human Mucolipin Transient Receptor Potential 1 (TRPML1). Mucolipin-1 (Homo sapiens), Q9GZU1. activity change, negative = inhibition, % (no concentration beside the values). actives 0.02% (n = 390,000). TRPML1-inducible cells, Ca2+ dye fluorescence, FDSS; active compounds read low; inhibition of EC80 agonist-evoked calcium signal; in the data active means activity change below about -50%; inconclusive means about -30% to -50%; inactive means above about -30%;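 further: stimulus is agonist 54-4 at its EC80 concentration; on the % scale 0 is the no-effect control and ±100 the full control effect; compound concentration not given in the record; the text of the record puts the active cut at -80%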
Target sequence (Q9GZU1 whole entry, looked up): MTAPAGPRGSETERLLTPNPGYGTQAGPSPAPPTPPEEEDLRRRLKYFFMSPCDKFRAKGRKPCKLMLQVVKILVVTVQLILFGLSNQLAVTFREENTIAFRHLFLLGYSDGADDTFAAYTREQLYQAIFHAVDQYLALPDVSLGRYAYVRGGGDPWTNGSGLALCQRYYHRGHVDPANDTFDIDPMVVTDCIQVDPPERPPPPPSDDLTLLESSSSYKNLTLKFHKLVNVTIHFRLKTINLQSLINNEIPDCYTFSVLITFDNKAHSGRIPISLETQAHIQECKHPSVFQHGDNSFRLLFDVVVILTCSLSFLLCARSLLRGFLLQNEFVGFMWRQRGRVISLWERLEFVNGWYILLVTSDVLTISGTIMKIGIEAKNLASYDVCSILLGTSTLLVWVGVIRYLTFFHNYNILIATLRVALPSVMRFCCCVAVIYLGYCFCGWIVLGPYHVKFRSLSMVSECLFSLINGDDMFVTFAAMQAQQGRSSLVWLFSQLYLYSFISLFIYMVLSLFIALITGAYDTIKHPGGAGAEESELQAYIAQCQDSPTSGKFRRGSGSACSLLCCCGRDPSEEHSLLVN
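TRPML1-DL cells, Tet-induced overnight (~16 h, 37 °C) at 1,500 cells/well, were loaded with Ca8 no-wash dye plus quencher for 45-90 min at room temperature. Compounds were pinned during FDSS kinetic reading; agonist 54-4 at EC80 (4 uM final) then added.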
TRPML1 ag: qHTS for Agonists of the Human Mucolipin Transient Receptor Potential 1 (TRPML1); Mucolipin-1 (Homo sapiens), Q9GZU1; TRPML1-expressing cells, Ca2+ dye fluorescence, FDSS; host cell line not named in the record; reference of the full effect not given here; activation, % (no concentration beside the values); actives 0.12% (n = 410,000); AID 624414, 2012; in the data active = activation above about 50%; inconclusive = about 30% to 50%; inactive = below about 30%; further: 0% is about no effect; the text of the record puts the active cut at 80%
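Kinetic FDSS Ca2+ read in Tet-induced TRPML1-DL cells (ABD Ca8 dye plus quencher, 45-90 min RT loading): baseline, then compound, then 110 s agonist window; EC80 agonist 54-4 at 4uM final added afterwards for a 110 s antagonist window.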
Starred values were filed as active, the others as inactive; ? = inconclusive; · = not tested or not shown; & = joins results of further samples; [ ] = dose if it differs, or a comment. Outcome played no part in choosing rows (roughly 4.4% active in at least one column).

SMILES	TRPV1 PAM	ClpP mod	PINK1 expr mod	Sfp inh	Menin-MLL FL inh	TRPML1 inh	TRPML1 ag
Cc1cc(C)nc(NC(=O)Nc2ccc3c(c2)OCO3)c1	-19.4	-2.5%	2.1%	-6.7%	-1.4	-10.8	-0.7
COC(=O)C(NC(=O)c1ccccc1)(Nc1cc(C)cc(C)n1)C(F)(F)F (centres undefined)	1.9	-3.2%	2.8%	2.2%	-1.4	5.3	0.6
COc1cc(NC(=O)Nc2cccc(-c3noc(C)n3)c2)cc(OC)c1OC	·	-6.0%	-3.3%	·	·	-1.9	1.2
O=C1c2ccccc2-c2cccc(NS(=O)(=O)c3ccc(C(F)(F)F)cc3)c21	14.1	0.3%	-0.6%	-12.4%	?	3.0	8.7
COc1ccc(CCNC(=O)c2sc3nc4n(c(=O)c3c2C)CCC4)cc1	21.8	-7.4%	-1.0%	·	·	11.0	0.3
C#CC(C)(CC)NC(=O)Cn1nnc(-c2ccc(OCc3ccccc3C)cc2)n1 (centres undefined)	·	-2.8%	2.9%	·	·	-4.5	3.3
NC(c1csc(NC(=O)Nc2ccccc2)n1)C1CCCCC1 (centres undefined)	·	-2.8%	0.0%	·	·	·	1.6
CC(=O)Nc1ccc(NC(=O)CSc2nnc(-c3cc(C)[nH]n3)n2N)cc1	-15.2	-3.0%	-0.1%	11.8%	·	6.9	-0.5
Nc1scc[n+]1Cc1cccc2cccnc12	-2.0	0.2%	1.3%	17.3%	-1.8	-0.7	0.9
COc1cc(CN(C2CCCCC2)S(=O)(=O)c2ccc(S(=O)(=O)N(C)C3CCCCC3)cc2)cc(OC)c1OC	5.9	-0.6%	1.1%	10.8%	3.8	-26.6	-0.6
COc1cccc(C(=O)NNC2OC(CO)C(O)C2O)c1 (centres undefined)	2.9	·	-1.0%	8.4%	-0.8	-2.1	0.3
O=C(N/N=C/c1ccc(Br)s1)c1cccnc1	-0.9	1.9%	-0.1%	-20.2%	-4.9	1.4	-0.4
CCN(CC)S(=O)(=O)c1ccc(N2CCc3ccccc3C2)nc1	2.6	-10.0%	-1.3%	-9.5%	0.6	18.4	6.6
Cc1ccc(CN2CCC(CNC(=O)Nc3ccccc3F)CC2)cc1	15.3	-0.7%&-1.4%	1.5%&0.0%	13.7%	0.3	-7.0	-0.4
C=C1C(=O)C23C(O)C1CCC2C12CCCC(C)(COC(C)=O)C1C(O)C3(O)OC2 (centres undefined)	·	4.5%	-0.6%	·	·	3.0	14.3
Cc1ccc(Cn2c(CN3CC(C)OC(C)C3)nc3c2c(=O)[nH]c(=O)n3C)cc1 (centres undefined)	0.5	0.0%	-0.5%[38.3 µM]	25.2%	4.6	0.4	0.2
O=C(CCS(=O)(=O)c1ccc(Br)cc1)Nc1ccccn1	11.0	-22.1%	2.3%	-1.5%	2.3	-0.2	1.0
CC(=O)N1CCCN(Cc2cn(-c3cc(C)ccc3C)nc2-c2ccccc2)CC1	-24.7	·	2.7%	11.6%	0.6	15.6	-0.9
C/C(=N\NC(=O)CSc1nc2ccccc2o1)c1cccc(O)c1	23.1	-0.6%	2.6%	-11.0%	1.7	-7.0	0.8
O=C(Nc1ccc(O)c(-c2nc3ccccc3s2)c1)C1=COCCO1	-11.1	-7.1%	20.6%	7.0%	6.5	-7.6	1.1
O=C(COc1ccccc1)NCC(=O)N1CCCCCC1	-7.8	0.6%	-1.6%	·	·	10.7	0.5
CCOC(=O)c1c(C)[nH]c(C)c1S(=O)(=O)N1CCN(C(=O)c2ccco2)CC1	-7.3	1.3%	1.4%	12.2%	·	-9.3	0.7
Cc1cc(-n2c(C)nc3ccccc3c2=O)ccc1NC(=O)c1ccccc1[N+](=O)[O-]	·	1.8%	1.5%	·	·	-1.1	-0.5
Cc1nn(-c2ccccc2)c(Cl)c1/C=C1\SC(=S)N(C)C1=O	-0.3	-1.6%	-0.8%	?	4.2	63.2	0.1
COc1cc(NC(=O)COc2ccc(C)c(C)c2)ccc1NC(=O)c1ccco1	4.5	·	-1.7%	-25.6%	-1.2	-5.0	3.0

(list continues)
SMILES	TRPV1 PAM	ClpP mod	PINK1 expr mod	Sfp inh	Menin-MLL FL inh	TRPML1 inh	TRPML1 ag
CS(=O)(=O)c1nc(-c2ccccc2)c(-c2ccccc2)[nH]1	19.4	?	-1.7%	?	4.6	-5.6	1.3
O=C(Nc1ccc(N2CCCC(O)C2)cc1)c1snc2c(=O)[nH]cnc12 (centres undefined)	14.5	-2.8%	2.3%[38.3 µM]	-4.0%	-2.5	8.1	-0.2
Cc1ccc(NS(=O)(=O)c2cccc(C(=O)NCCc3c[nH]c4ccccc34)c2)c(C)c1	5.2	·	?	38.9%[activator]	6.4	16.9	-0.3
O=C1c2ccccc2C(=O)N1CN(C(=O)c1ccccc1)c1ccc(O)cc1	-1.5	1.2%	-0.5%	3.9%	-0.4	-10.3	1.9
CC1CCCC(C)N1CCNC(=O)CCn1nc(-c2ccccc2)ccc1=O (centres undefined)	1.6	-26.3%	7.4%	4.8%	1.2	23.5	-0.2
CN(CC(=O)Nc1cccc(F)c1)CC(=O)N(C)CC(=O)Nc1ccccc1Br	18.7	-1.8%	1.0%	·	·	2.8	0.2
O=C(Cc1n[nH]c(=O)[nH]c1=O)N/N=C/c1cccc(O)c1	3.2	1.4%	1.7%	6.7%	2.7	-7.0	2.5
O=C(N/N=C/c1cccnc1)c1cccc(NC(=O)c2ccccc2Cl)c1	-15.7	·	2.4%	22.6%	0.5	20.2	0.0
COc1ccc(S(=O)(=O)N2CCOC2CNC(=O)C(=O)NCCCN(C)C)cc1C (centres undefined)	·	-1.0%	0.8%	·	·	-15.9	-0.2
COc1ccc2[nH]c3c(c2c1)CCN1C(=O)C(CC(=O)NCc2ccco2)C[C@H](C(=O)N2CCCCC2)[C@@]31CCc1ccccc1 (some centres undefined)	·	-10.4%	1.9%	·	·	14.8	-0.9
Cc1ccc2cc(COC(=O)C3CCCO3)c(=O)[nH]c2c1 (centres undefined)	2.2	-28.0%	0.8%	5.4%	3.9	?	-0.5
Cc1ccc(C2(c3noc(CN(C)Cc4ccccn4)n3)CCCC2)cc1	-4.1	·	0.2%	13.9%	-1.5	-13.7	1.1
Cc1ccc2oc(C(=O)NCC3CCOCC3)c(C)c2c1	-12.0	2.3%	1.1%	5.7%	·	-18.6	0.1
CCOc1ccc(-c2c(C)nn3c(C)c(C(=O)NC(C)c4ccccc4)cnc23)cc1OCC (centres undefined)	·	-4.1%	15.9%	·	·	27.5	2.1
CCNc1nc(NCC)n2c(SC(C)C(=O)c3ccc(C)cc3)nnc2n1 (centres undefined)	-35.2	0.0%	-0.9%	-14.2%	2.1	3.3	0.0
CC1Oc2ccccc2N(CC(=O)N2CCCCC2)C1=O (centres undefined)	13.6	·	-0.4%	11.2%	-3.3	-14.6	-0.7
Cc1ccc(S(=O)(=O)N2CCCC(C(=O)N3CCN(C)CC3)C2)cc1 (centres undefined)	1.4	-0.7%	2.7%	-12.5%	2.4	3.5	-0.2
COc1ccc(C)cc1NC(=O)CSc1nnc(-c2ccc(C)cc2)o1	·	8.2%	15.9%	-12.0%	3.3	-19.5	0.3
Cc1ccc(NC(=O)CNC(=O)C2CCCCC2)nc1	6.0	·	-3.3%	·	·	-8.9	-0.2
COc1ccc(/C=C/C(=O)O)cc1S(=O)(=O)N1CCCC1	-4.6	?	-1.9%	-13.3%	-1.3	-12.9	-0.1
Cn1c(NC(=O)c2ccc(Cl)cc2Cl)cc(=O)n(C)c1=O	-7.0	-1.5%	2.7%	1.8%	-0.8	19.9	-0.1
CCN(CC)c1ccc(N2C(=O)c3ccccc3C2=O)cc1	-13.9	-0.7%	-0.4%	7.3%	-0.8	-13.4	0.2
CCN1CCN(CCNC(=O)c2ccc(CS(=O)c3ccc(Br)cc3)o2)CC1 (centres undefined)	5.6	0.1%	-0.6%	19.5%	·	-9.9	-0.2
C/C(CCc1ccccc1)=N\NC(=O)c1ccccc1[N+](=O)[O-]	6.7	-0.8%	1.5%	2.0%	·	-8.0	-0.4
CCn1c2ccccc2c2nnc(SCc3cc(=O)n4ccsc4n3)nc21	-4.6	·	·	-18.7%	2.6	·	·

Next structures follow:
SMILES	TRPV1 PAM	ClpP mod	PINK1 expr mod	Sfp inh	Menin-MLL FL inh	TRPML1 inh	TRPML1 ag
C[n+]1nc(Nc2ccccc2)sc1-c1ccc(O)cc1	-3.1	-5.5%	1.3%	9.8%	-1.9	3.1	-0.2
COc1ccc([C@H]2CC(=O)C=C(c3ccc(C)c([N+](=O)[O-])c3)C2)cc1	3.4	-1.0%	2.2%	·	·	26.0	2.2
N#CC1=C(N)N2C(=C(C#N)C1c1ccc(Br)cc1)Nc1ccccc12 (centres undefined)	-6.4	?	?	9.8%	11.1	9.5	4.4
COc1ccccc1CC(=O)Nc1cc(C)ccn1	-10.1	-3.0%	1.2%	17.7%	3.7	·	·
O=C1c2ccccc2C(O)N1c1cccnc1 (centres undefined)	·	-4.5%	1.1%	7.6%	1.6	-5.4	0.2
CCc1ccc(Cn2c(CNS(=O)(=O)c3ccc([N+](=O)[O-])cc3)nc3cccnc32)cc1	·	1.0%	0.8%	·	·	40.9	0.7
O=C(Nc1cccnc1)c1cc(-c2ccc(Cl)cc2Cl)on1	6.2	·	3.9%	20.6%	·	6.9	0.3
Oc1ccc(/C=N/NC(=S)NCc2ccco2)cc1	1.7	-6.2%	-1.8%	-1.8%	0.9	0.4	-1.4
O=C(CCC(=O)N1CCCC1)N1CCCC1	26.8	-0.9%	-0.1%	13.1%	1.2	11.8	0.8
O=C(Cn1cnc([N+](=O)[O-])n1)N/N=C/c1ccccc1O	?	0.4%	0.5%	27.4%	5.8	-19.1	-1.6
COc1ccc(S(=O)(=O)N(C)C[C@@H]2Oc3ccc(NC(=O)Nc4c(C)noc4C)cc3C(=O)N([C@H](C)CO)C[C@@H]2C)cc1	·	-28.3%	0.6%	·	·	-6.8	-0.5
COCC(=O)Nc1cc(Cl)ccc1C(F)(F)F	-5.6	·	·	8.0%	-0.5	·	·
